From PubChem
PKA-R1A act: activators of PKA-R1A holoenzyme, primary screen, biochemical, fluorescence polarization, Cy5-IP20, bovine R1A, mouse PKAc. cAMP-dependent protein kinase type I-alpha regulatory subunit (Bos taurus) + …. PKA-R1A dissociation; scaled: DMSO 0%, 113 µM cGMP 100%. activation, % at 11.4 µM. actives 0.083% (n = 340,000). AID 504707, 2011;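 active = percent activation above the mean of all tested compounds plus 3 SD, cut at about 19% in these data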;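 note: higher means more PKAc released from R1A so a rise in polarization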
SUMO Mot1 rescue: yeast Mot1-301 growth rescue at high temperature, primary screen, SUMOylation pathway inhibitor project, S. cerevisiae, ATP luminescence, 38.5C | S. cerevisiae Mot1-301 growth rescue; percent above DMSO median, 100 means doubled | growth rescue, % at 18.8 µM | actives 1% (n = 320,000);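 active = every valid replicate shows activation above 250% relative to neutral control wells; inactive = the rest, any valid replicate at or below 250%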;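 note: OY570 slx delta 5 strain wells were the positive control but not used for scaling; some compounds called inactive have numbers as strong as hits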
Tat export inh: E. coli Tat export inhibitors, primary screen, MC4100, TorA-mCherry reporter, fluorescence, single point. inhibition, % at 10 µM. actives 0.036% (n = 340,000);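 active = mean replicate inhibition at least 50% and at least half of replicates individually reaching 50%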;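 note: exported cargo escapes ClpAP degradation while cytoplasmic cargo is degraded and loses fluorescence; 0% = median of neutral control wells and 100% = median of NaSCN control wells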
DSG3 Ab inh: inhibitors of pemphigus antibody binding to DSG3, primary screen, biochemical, bead-based, flow cytometry, scFv-GFP | Desmoglein-3 (Homo sapiens), P32926 | DSG3-coupled beads, scFv-anti-DSG3-GFP binding; active compounds read low | binding (percent of control), % at 10 µM | actives 0.48% (n = 310,000);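 active = binding more than 3 SD below its plate's average and above zero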;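 note: hits lower antibody fragment binding to DSG3; some compounds called inactive have numbers as strong as hits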
Target sequence (P32926 whole entry, looked up, the tested form may be a part): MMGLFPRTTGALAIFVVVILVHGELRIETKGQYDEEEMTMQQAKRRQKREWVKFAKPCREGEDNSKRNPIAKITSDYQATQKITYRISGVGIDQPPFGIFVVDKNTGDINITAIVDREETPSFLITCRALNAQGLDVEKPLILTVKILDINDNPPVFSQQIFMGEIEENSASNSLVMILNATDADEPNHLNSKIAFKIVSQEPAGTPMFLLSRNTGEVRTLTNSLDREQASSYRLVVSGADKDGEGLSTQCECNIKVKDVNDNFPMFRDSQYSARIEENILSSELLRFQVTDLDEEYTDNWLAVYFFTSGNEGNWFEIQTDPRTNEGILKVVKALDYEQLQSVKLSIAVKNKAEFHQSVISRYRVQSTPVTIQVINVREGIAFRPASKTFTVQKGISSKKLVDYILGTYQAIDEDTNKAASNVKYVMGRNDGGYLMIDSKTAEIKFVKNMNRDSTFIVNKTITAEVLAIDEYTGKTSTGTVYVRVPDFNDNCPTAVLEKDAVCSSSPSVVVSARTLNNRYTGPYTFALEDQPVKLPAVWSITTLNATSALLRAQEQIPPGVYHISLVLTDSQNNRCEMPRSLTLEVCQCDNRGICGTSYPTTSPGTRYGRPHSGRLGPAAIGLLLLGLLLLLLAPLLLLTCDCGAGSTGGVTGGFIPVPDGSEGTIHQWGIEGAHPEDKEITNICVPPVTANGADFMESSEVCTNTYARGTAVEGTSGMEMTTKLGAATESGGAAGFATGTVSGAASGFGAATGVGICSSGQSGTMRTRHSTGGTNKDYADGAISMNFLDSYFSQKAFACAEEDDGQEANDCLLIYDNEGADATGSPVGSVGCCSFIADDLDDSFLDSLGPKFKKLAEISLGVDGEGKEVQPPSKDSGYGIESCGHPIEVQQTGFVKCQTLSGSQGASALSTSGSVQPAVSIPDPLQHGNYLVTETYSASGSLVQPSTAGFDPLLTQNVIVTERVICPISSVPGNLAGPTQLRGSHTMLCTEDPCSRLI
Arrestin-AP2 inh: inhibitors of beta-arrestin/AP2 binding, primary screen, biochemical, GPCR trafficking, flow cytometry; FITC-arrestin peptide / GST-AP2 beads; AP2 beta2 appendage carries R879A mutation; inhibition, % at 10 µM; actives 0.31% (n = 340,000); AID 504490, 2011;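 active = inhibition above a set limit, near 3 SD of compounds lacking own fluorescence, cut at about 54% in these data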;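 note: plate controls were DMSO wells for no effect and 5 µM unlabelled arrestin peptide for full effect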
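System: GST-AP2 R879A bound to glutathione beads, E. coli-expressed. Also added: 50 nM FITC-arrestin peptide. Schedule: compound with beads 12 min RT, then probe 1 h RT. Signal: bead flow cytometry, FITC channel. Read-out basis: percent response.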
PfHsp90 set2: growth inhibition of PfHsp90-expressing yeast, primary screen, antimalarial PfHsp90 inhibitor project, S. cerevisiae, BacTiter-Glo luminescence, single point, set 2; BacTiter-Glo ATP, 48 h; yeast lacking PDR1 and PDR3 efflux regulators; inhibition, % at 9.4 µM; actives 0.32% (n = 310,000);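 active = every replicate shows inhibition above about 80%, whatever the replicate mean, limit read from the data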;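 note: 0% = DMSO neutral controls and 100% = 20 µM radicicol positive controls; yeast relying on Plasmodium falciparum Hsp90 in place of its own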
Active calls of the source: *; · = not tested or not shown; & = joins results of further samples. The list is partial; the hit share may differ from the screen's.

SMILES | PKA-R1A act | SUMO Mot1 rescue | Tat export inh | DSG3 Ab inh | Arrestin-AP2 inh | PfHsp90 set2
C[C@]12CCC(=O)C=C1C=C[C@@H]1[C@@H]2CC[C@@]2(C)[C@H]1CC[C@@]2(O)CCC(=O)O | 2 | -24 | -7 | 123 | 10 | 31
COc1ccc2c3c1OC1C(=O)CC[C@@]4(O)[C@@H](C2)N(C)CC[C@]314 (some centres not stated) | -2 | · | 22 | 98 | 7 | ·
Oc1ccc2c3c1O[C@H]1[C@@H](O)CC[C@@]4(O)[C@@H](C2)N(CC2CCC2)CC[C@]314 | -9&-2 | -23&5 | -6&-6 | 108&111 | -1&13 | -23&-12
CC[C@H]1C2C[C@H]3[C@@H]4N(C)c5ccccc5C45C[C@H](C2[C@H]5O)N3[C@@H]1O (some centres not stated) | -8 | 3 | -1 | 97 | 1 | -10
COC(=O)C1=C(C)NC(C)=C(C(=O)OC)C1c1ccccc1[N+](=O)[O-] | -4 | -9 | -9&4 | · | 16 | -3
CCOC(=O)c1c(N)n(Cc2ccccc2)c2nc3ccccc3nc12 | 3 | -7 | 1 | 100 | -19 | -18
CCOC(=O)c1cc(CC)sc1/N=C/c1c(O)[nH]c(=S)[nH]c1=O | 6 | -4 | 3 | 131 | 17 | -7
Cc1oc(C(=O)Nc2ccc(O)cc2)cc1COc1ccccc1 | 7 | -3 | -2 | 102 | -5 | -11

2 of the compounds above, with tabs:
smiles	PKA-R1A act	SUMO Mot1 rescue	Tat export inh	DSG3 Ab inh	Arrestin-AP2 inh	PfHsp90 set2
Oc1ccc2c3c1O[C@H]1[C@@H](O)CC[C@@]4(O)[C@@H](C2)N(CC2CCC2)CC[C@]314	-9&-2	-23&5	-6&-6	108&111	-1&13	-23&-12
CC[C@H]1C2C[C@H]3[C@@H]4N(C)c5ccccc5C45C[C@H](C2[C@H]5O)N3[C@@H]1O (some centres not stated)	-8	3	-1	97	1	-10

As entered above.
Arrestin-AP2 inh result of COc1ccc2c3c1OC1C(=O)CC[C@@]4(O)[C@@H](C2)N(C)CC[C@]314 (some centres not stated) → 7
SUMO Mot1 rescue result of CC[C@H]1C2C[C@H]3[C@@H]4N(C)c5ccccc5C45C[C@H](C2[C@H]5O)N3[C@@H]1O (some centres not stated) → 3

Single records (already shown):
Profile of `Cc1oc(C(=O)Nc2ccc(O)cc2)cc1COc1ccccc1` : PKA-R1A act: 7; SUMO Mot1 rescue: -3; Tat export inh: -2; DSG3 Ab inh: 102; Arrestin-AP2 inh: -5; PfHsp90 set2: -11
Profile of `CCOC(=O)c1cc(CC)sc1/N=C/c1c(O)[nH]c(=S)[nH]c1=O` : PKA-R1A act: 6; SUMO Mot1 rescue: -4; Tat export inh: 3; DSG3 Ab inh: 131; Arrestin-AP2 inh: 17; PfHsp90 set2: -7
